# Screening results: PubChem BioAssay, ICCB-Longwood Screening Facility, Harvard Medical School
# Ab BasE inh: inhibitors of Acinetobacter baumannii siderophore enzyme BasE | 0.1% of 84,000 active | purified BasE, fluorescence polarization binding displacement | inhibition, % (concentration not given with the values);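 active = both replicates above 25% with normal brightness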;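 note: 0% = negative plate control signal and 100% = positive plate control signal; stock transfer was 100 nL into about 30 µL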
# KSHV LANA nucl: inhibitors of KSHV LANA binding to nucleosomes; z-score (no concentration beside the values); 0.3% of 51,000 active; FITC-LANA1-23 / chicken nucleosome fluorescence polarization; active compounds read low;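 active = both repeat wells score below -2 in polarization z-score versus plate sample wells, excluding overly bright wells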;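 note: 100 nL library stock added to about 30 µL; numbers are from one replicate; some results filed as inactive read as strong as hits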
#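 Test system: purified chicken nucleosomes with FITC-labelled LANA N-terminal peptide (1-23); Input: 240 nM purified chicken nucleosomes (480 nM peptide binding sites), final; Medium: TEN-BT buffer, pH 7.5; Timing: 10–45 min, room temperature; Technique: fluorescence polarization, 480 nm excitation, 535 nm parallel and perpendicular emission; Replication: duplicates.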
# * = called active by the depositor; · = no result given; & = joins results of further samples. An excerpt (hit frequency here may not be typical).
SMILES,Ab BasE inh,KSHV LANA nucl
CNC(=O)COc1coc(CN2CCN(Cc3ccccc3)CC2)cc1=O,-0.8,2.6
CS(=O)(=O)N(CC(=O)N1CCCCC1)c1sc2c(c1C#N)CCCC2,-5.0,1.7
CCOC(=O)c1c(SC)nc2c(C(F)(F)F)cccc2c1N1CCCC1,3.0,·
CCCN1C[C@H](CSC)C[C@@H]2c3cccc4[nH]cc(c34)C[C@H]21,-3.3&-1.4,-0.24&-0.58&0.37&0.29&-0.013
COC(=O)c1ccc(/C=N/NC(=O)CSc2nnc(C)n2-c2ccccc2)cc1,0.4,-0.21
CC1CCN(Cn2c(=S)n(CN3CCC(C)CC3)c3ccccc32)CC1,-1.1,·
CSc1ncccc1C(=O)OC1CCOC1=O (stereo not given),-1.6,·
CC1(C(=O)O)CC(C)(C(=O)O)CC(C)(C(=O)O)C1 (stereo not given),-0.7,-1.6
CNc1nc(C)c(C(=O)OCC(=O)OC)s1,1.9,-0.17
FC(F)(F)c1cnc(Sc2ncn[nH]2)c(Cl)c1,·,-1.1
C/C(=C\C(=O)Nc1ccc(Cl)cc1)N1CCN(c2ccccc2F)CC1,1.2,·
O=S(=O)(CCO/N=C/c1cccs1)c1ccc(Cl)cc1,1.7,0.39
O=C(NNC1=NCCC1)c1cccc(S(=O)(=O)N2CCOCC2)c1,1.4,·
COc1ccc2c(c1)C=CC(C1C(=O)c3ccccc3C1=O)N2 (stereo not given),·,-0.73
CC(Oc1ccccc1)C(=O)Nc1nc2ccccc2s1 (stereo not given),4.9,-0.69
CN1C(=O)/C(=C\c2ccc(-c3ccc(S(N)(=O)=O)cc3)o2)c2ccccc21,0.3,·
O=C(N/C=N/O)c1ccccc1-n1ccnc1,·,1.6
Cc1ccc(CNC(=O)c2ccc3c(=O)n4c(nc3c2)CCCCC4)cc1,-5.9,-0.78
COc1ccc2c(c1)CCN(Cc1cc3sccc3n1CC1CCCCC1)C2,-3.4,-0.32
CCN(CC)S(=O)(=O)c1ccc(N=Nc2c(C)nn(-c3ccccc3)c2N)cc1,-1.1,·
CSc1ncc(CO)n1Cc1ccccc1,·,2.5
Cc1ccccc1NC(=O)Cn1cc2c(n1)CCCCC2,1.6,-0.95
CCC(=O)Nc1ccccc1C(=O)OCC(=O)Nc1ccc(S(N)(=O)=O)cc1,-1.9,·
CCN(CC)S(=O)(=O)c1cccc(S(=O)(=O)c2ccc(C)c(S(=O)(=O)N(CC)CC)c2)c1,-2.3,0.29
CC1CC(C)CN(Cc2csc3c2CCCC3)C1 (stereo not given),-3.1,0.27

# The closing 3 entries of the section above lead into the next:
SMILES,Ab BasE inh,KSHV LANA nucl
CCC(=O)Nc1ccccc1C(=O)OCC(=O)Nc1ccc(S(N)(=O)=O)cc1,-1.9,·
CCN(CC)S(=O)(=O)c1cccc(S(=O)(=O)c2ccc(C)c(S(=O)(=O)N(CC)CC)c2)c1,-2.3,0.29
CC1CC(C)CN(Cc2csc3c2CCCC3)C1 (stereo not given),-3.1,0.27
Cc1[nH]c2ccccc2c1Cc1nc2ccccc2[nH]1,-4.7,·
CCCNc1ncnc2onc(-c3ccc(F)cc3)c12,0.6,·
Cc1cc(-c2ccc(Cl)cc2)nc2c1c(C)nn2CCO,0.2,·
CCOC(=O)C1CCN(C(=O)CCS(=O)(=O)c2ccc3c(c2)CC(C)N3C(=O)CC)CC1 (stereo not given),1.3,-0.16
Cc1ccc2c(COC(=O)CNC(=O)c3ccco3)cc(=O)oc2c1C,-1.0,·
CC/C(Cc1ccccc1)=N\NC(=O)Cn1nnc2ccccc21,3.8,·
CC(C)(C)c1cc(C(C)(C)C)cc(S(=O)(=O)CCc2ccccn2)c1,0.6,·
CSc1nc2nc(C)cc(C)n2n1,1.7,0.49
CCS(=O)(=O)Nc1ccc(C(=O)NC2CC2)cc1,0.9,-0.41
CCCn1c(NC(=O)Cc2coc3ccc4ccccc4c23)nc2ccccc21,-3.6,·
Nc1nc(Sc2nc3cc(Cl)ccc3s2)n[nH]1,-3.0,0.48
O=C(CSc1nncs1)NCc1cccs1,0.5,·
O=C(Nc1cccc(OC(=O)c2ccco2)c1)c1ccccc1,0.0,0.76
NC(=O)CC1C(=O)N(c2ccc(F)cc2)C(=O)N1NC(=O)CCc1ccccc1 (stereo not given),0.3,0.1
C=CC1=C(C(=O)O)N2C(=O)[C@@H](NC(=O)C(=NOCC(=O)O)c3csc(N)n3)[C@H]2SC1,·,-0.017
Cc1nc(SCC(=O)C(C)(C)C)[nH]c(=O)c1Cc1c(Cl)cccc1Cl,3.1,·
CCOC(=O)c1ccc(N2C(=O)c3n[nH]c(C)c3C2c2ccc(Cl)cc2Cl)cc1 (stereo not given),-6.4,2.1
O=C(Nc1ccc2c(c1)OCCO2)c1cccs1,1.4,·
CCN1CCCC1CNCc1cccc(OC)c1OC (stereo not given),-0.3,0.16
Cc1ccc(S(=O)(=O)NC(=O)N2CCCN(c3ccc(C(F)(F)F)cn3)CC2)cc1,0.6,·
COc1cc(C#N)ccc1OCC(=O)NC(C)c1ccc2c(c1)OCO2 (stereo not given),-4.3,·
Cc1ccccc1Nc1nc(N)nc(COc2ccc3c(C)cc(=O)oc3c2)n1,0.6,·
Cc1nc(Oc2ccc(NC(=O)c3ccccc3)cc2)c2c3c(sc2n1)CCC3,3.1,·
CCn1c(SCC(N)=O)nnc1C(C)Oc1ccc(F)cc1 (stereo not given),1.5,-0.22
O=C(Nc1ccc(-c2nc3cc(Cl)cc(Cl)c3o2)cc1)c1ccc2c(c1)OCCO2,1.1,-0.001

# Brought forward from above: two entries; new compounds follow.
SMILES,Ab BasE inh,KSHV LANA nucl
CCn1c(SCC(N)=O)nnc1C(C)Oc1ccc(F)cc1 (stereo not given),1.5,-0.22
O=C(Nc1ccc(-c2nc3cc(Cl)cc(Cl)c3o2)cc1)c1ccc2c(c1)OCCO2,1.1,-0.001
O=C(CSc1ccccn1)c1ccc(OCc2ccc(F)cc2)cc1,0.7,·
Cc1ccnc2c1ccc1ccccc12,-0.3,-1
Oc1ccc2ccccc2c1CN1CCN(Cc2cccs2)CC1,0.8,·
CN(Cn1[nH]c(-c2cccs2)nc1=S)C1CCCCC1,0.4,·
CCN(CC)S(=O)(=O)c1ccc2nc(SC)sc2c1,1.3,0.73
O=C(Cn1cnc2c(nnn2-c2ccccc2)c1=O)NC1CCCC1,-0.8,0.71
O=C(c1ccc(F)cc1)N1CCCCC(Sc2nnc(-c3ccc4c(c3)OCO4)o2)C1=O (stereo not given),1.6,·
Cc1oc2c(c1C(=O)Nc1ccc(C(=O)O)cc1)CCCC2,1.5,0.12
Nc1ccc2c(c1)CN(Cc1ccccc1)C2,0.2,0.066
COc1cc(C(=O)Nc2ccc3c(c2)ncn3C(C)(C)C)cc(OC)c1OC,-11,0.8
O=C(c1cc2ccccc2nc1-c1ccco1)C(F)(F)F,13,0.013
COC(=O)C1=C(C)NC(=O)/C1=C\c1ccc(Cl)cc1,-0.9,-0.66
COc1ccc(NC(=O)CSc2nc(O)cc(=O)[nH]2)cc1,1.5,·
O=C(COC(=O)c1cccc(C(F)(F)F)c1)NC1CCS(=O)(=O)C1 (stereo not given),-5.1,·
CCOc1ccc(C(=O)CSc2nnc3c(n2)CCCC3)cc1NC(=O)CC,1.2,0.065
NNC(=O)c1nn(-c2ccc(Cl)cc2)cc1O,0.0,·
Cc1ccc2occ(CN3CCSCC3)c(=O)c2c1,-4.2,-0.21
CCC(C)(C)NC(=O)C1CCC(CNS(=O)(=O)c2cccc3nsnc23)CC1 (stereo not given),2.2,-1.1
Cc1cccc(NC(=O)CSc2nc3c(oc4ccccc43)c(=O)n2C2CCCC2)c1C,-0.1,-1.5
CC(CC(=O)NCC(c1ccc(F)cc1)N1CCOCC1)n1ccnc1 (stereo not given),0.4,·
Cc1[nH]cnc1C(=O)N/N=C/c1ccncc1,-2.0,0.17
COc1ccc(S(=O)(=O)N2Cc3ccccc3CC2C(=O)NC(C)(C)C)cc1OC (stereo not given),2.3,-1.3
CC(NC(=O)CN1C2CCC1CC(=O)NC2)c1ccccc1 (stereo not given),-4.6,2.3
CCCS(=O)(=O)N1CCN(S(=O)(=O)c2ccccc2)CC1,-0.1,-0.44
O=C(c1ccc2c(=O)[nH][nH]c(=O)c2c1)N1CCN(c2cccc(C(F)(F)F)c2)CC1,1.0,·

# Six compounds drawn at random from those above:
SMILES,Ab BasE inh,KSHV LANA nucl
O=C(c1ccc(F)cc1)N1CCCCC(Sc2nnc(-c3ccc4c(c3)OCO4)o2)C1=O (stereo not given),1.6,·
COc1cc(C(=O)Nc2ccc3c(c2)ncn3C(C)(C)C)cc(OC)c1OC,-11,0.8
Oc1ccc2ccccc2c1CN1CCN(Cc2cccs2)CC1,0.8,·
NNC(=O)c1nn(-c2ccc(Cl)cc2)cc1O,0.0,·
CCCS(=O)(=O)N1CCN(S(=O)(=O)c2ccccc2)CC1,-0.1,-0.44
CCOc1ccc(C(=O)CSc2nnc3c(n2)CCCC3)cc1NC(=O)CC,1.2,0.065

# (continued)
SMILES,Ab BasE inh,KSHV LANA nucl
CCc1nnc(SCC(=O)Nc2cccc(C)c2)nc1CC,-1.0,·
CN(C)C(CNS(=O)(=O)c1ccc(Cl)cc1)c1ccccc1 (stereo not given),0.1,-0.23
O=C(c1ccc2c(Cl)c3c(nc2c1)CCC3)N1CCN(C(=O)c2ccco2)CC1,-2.8,0.47
COc1ccc(C(=O)Sc2nnc(-c3cccs3)n2-c2ccccc2)cc1,1.5,·
COc1ccc(C(=O)COC(=O)CSc2nc(C)cc(C)n2)cc1OC,0.2,·
CC(C)CNC(=O)c1cnn2c(C(F)F)cc(-c3ccccc3)nc12,1.7,-0.88
CCC(c1nnc(SC/C(O)=C(\C#N)c2nc3ccccc3[nH]2)n1Cc1ccccc1)N(C)C (stereo not given),3.3,·
CCC1=NC(c2ccccc2OC)N(O)C1(C)C (stereo not given),2.7,·
COc1ccc(-c2[nH]nc3c2C(c2ccc(N(C)C)cc2)C2=C(CC(C)(C)CC2=O)N3)cc1 (stereo not given),-2.5,-0.33
Cc1cc(/C=C(\C#N)C(=O)OC(C)C)c(C)n1-c1cc(Cl)ccc1Cl,0.0,·
CNC(=S)NCCc1c[nH]c2ccc(OC)cc12,2.4,0.25
CSc1nc(N2CCCCC2)c2c(c1C#N)CCCC2,0.5,·
Cc1cc(C(=O)Nc2ccc3c(c2)OCCO3)cs1,1.0,0.66
S=C1NC(c2ccccc2)=NCN1c1ccc(Cl)cc1,1.3,·
COc1ccc(N2CCN(C(=O)CN(C)CC(=O)Nc3cccc(F)c3)CC2)cc1,1.8,·
COc1ccc(C(=O)CSC2=NCCc3ccccc32)cc1,-0.2,·
Cc1ccnc(SCC(=O)N2CCc3ccccc3C2)n1,40*,·
CCOC(=O)C1CCN(/C(C)=C2/C(=O)N(c3nc4ccccc4[nH]3)N=C2C)CC1,19,-1.1
O=C(O)CCCn1c(=O)oc2ccccc21,-0.4,0.99
NNC(=O)C1CCCCC1,0.1,·
N#CCCn1cc(/C=C/C(=O)O)c2ccccc21,0.3,·
Cc1cc(C)n(C(C)CC(=O)NCc2cccs2)n1 (stereo not given),0.8,-0.18
O=C(CNC(=O)c1ccc(Cl)cc1)NO,·,0.061
O=C(CN1CCCc2ccccc21)NCc1ccccc1Cl,-0.5,·
Cc1nn(-c2ccc(Cl)cc2)c2sc(C(=O)ONC3=NCCCCC3)cc12,-1.4,·

# The results go on.
SMILES,Ab BasE inh,KSHV LANA nucl
O=C1CCCCC1Sc1nnc(-c2ccco2)n1Cc1ccccc1 (stereo not given),-1.6,·
NN=C(c1ccccc1)c1ccccc1,0.4,0.11
CCOc1ccc(S(=O)(=O)NCC(=O)OCN2C(=O)c3ccccc3C2=O)cc1,2.0,·
CC1CCCC(C)N1NC(=O)CCN1C(=O)S/C(=C\c2cccs2)C1=O (stereo not given),-0.5,·
Cc1ccc(-c2cc(NC(=O)CN(C)CC3COc4ccccc4O3)on2)cc1 (stereo not given),0.6,·
N/C(=N/OC(=O)c1ccccc1)c1ccccn1,0.0,-1.8
NNC(=O)CNC(c1ccccc1)c1cc(Br)ccc1NC(=O)CCN1CCOCC1 (stereo not given),-0.5,0.086
CSc1ccccc1C(=O)NCc1ccc2c(c1)OCO2,1.8,-1.5
CC(C)(C)OC(=O)N1CCC[C@H]1C(=O)OCC(=O)Nc1ccc2c(c1)OCCCO2,0.5,·
O=c1oc2cc(O)ccc2cc1-c1csnn1,1.6,-0.11
O=C(O)CCCN1C(=O)/C(=C/c2ccc(-c3ccccc3F)o2)SC1=S,3.2,·
O=C(CSc1ncccn1)NCCc1ccccc1,1.0,-1.1
CC1=C(C#N)C(=O)NC(=O)/C1=C\c1ccc(-c2ccc(S(N)(=O)=O)cc2)o1,5.8,0.59
Cn1nc(C(C)(C)C)c(NC(=O)c2sccc2Cl)c1C(C)(C)C,-2.0,3
O=C(NCc1ccc2c(c1)OCO2)c1cc(=O)[nH]c2ccc(Br)cc12,0.9,0.31
O=c1[nH]c(NC2CCN(Cc3ccccc3)CC2)nc2c1CCCC2,1.5,0.3
CC(C)N(C(=O)Cn1nc(C(=O)O)c2ccccc2c1=O)C(C)C,-0.1,·
CC(C)(C)c1ccc(C(=O)Nc2c3c(nn2C(C)(C)C)CSC3)cc1,-1.2,-0.27
OC(c1ccccc1)C(O)c1ccccc1 (stereo not given),1.6,0.47
CC1Cc2cc(C(=O)CSc3nnc(Cc4cccs4)n3C)ccc2N1S(C)(=O)=O (stereo not given),-2.9,·
CC(Sc1nncs1)C(=O)N1c2ccccc2CC1C (stereo not given),1.4,·
Cc1noc(C)c1COC(=O)c1ccc(S(=O)(=O)N(C)C)cc1,0.9,·

# 3 of the entries above in order of their number in KSHV LANA nucl, lowest first:
compound | KSHV LANA nucl
O=C(CSc1ncccn1)NCCc1ccccc1 | -1.1
NN=C(c1ccccc1)c1ccccc1 | 0.11
O=c1[nH]c(NC2CCN(Cc3ccccc3)CC2)nc2c1CCCC2 | 0.3
